# From PubChem
# PrP 5UTR inh – inhibition of PrP 5' UTR reporter expression | cell-based PrP 5' UTR mRNA reporter, plate reader | inhibition, % (test concentration not listed) | 0.35% of 340,000 active | AID 488862, 2010;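 active = every replicate at 50% or more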;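 note: 0 = median of the neutral control wells; tested in H4 reporter cells; numbers are from one replicate; inactives centre near -14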
# BJeLR lethal – MLPCN primary cell-based screen for lethality selective to Ras in HRASV12 cells; BJeLR (HRASV12) viability, CellTiter-Glo ATP luminescence, 48 h; reference of the scale not given here; inhibition, % (concentration not given with the values); 0.17% of 300,000 active;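 active = replicate mean above 50%; inconclusive = above 50% but judged a plate artefact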;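 note: 50 nL library stock added to about 25 µL; numbers are from one replicate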
# Sa ugtP lethal – growth inhibition of ugtP-null S. aureus, primary screen, RN4220 ugtP deletion, OD600; 16 h; some inactives read as strong as hits; growth inhibition, % (test concentration not listed); 0.54% of 330,000 active;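 active = z-score under -3 and OD600 up to 0.15 on both plates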;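 note: plate controls were untreated wells for no effect and antibiotic for full effect; wells of about 80 µL received 100 nL stock; the first replicate is given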
# Sa RN4220 lethal – growth inhibition of S. aureus RN4220, primary screen, OD600. 16 h. inhibition, % (no concentration beside the values). 0.33% of 330,000 active. AID 1259311, 2017;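 active = z-score of -3 or lower and OD600 up to 0.18 on both plates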;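 note: plate controls were untreated cells for no effect and reference antibiotic for full effect; stock transfer was 100 nL into about 80 µL; one replicate is shown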
# Mtb hypoxia inh – PubChem AID 1159583; M. tuberculosis hypoxia-regulated fluorescent reporter, fluorescence; fluorescence inhibition, % (test concentration not listed); 0.1% of 300,000 active;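 active = 35 to 45% if threefold the growth effect, above 45% if 1.5-fold the growth effect; inactive = the rest, general growth blockers included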;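 note: wells of about 50 µL received 100 nL stock; 0% = vehicle wells and 100% = reference inhibitor wells; whole bacteria with a GFP reporter of the hypoxia response; strong numbers were not always called active; many hits fall short of the cut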
# Bead autofluor – flagged as autofluorescent in microsphere protease counterscreen; compound autofluorescence counterscreen, microsphere flow cytometry; hits give high values; fluorescence intensity (test concentration not listed); 3.1% of 360,000 active; AID 624483;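 active = at least 3 SD above the mean of all compounds, about 16000 in these data; inconclusive = too few beads counted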;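 note: 100 nL of 1 mM stock went into each well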
# Mtb hypoxia inh growth – also measured in Mtb hypoxia inh; calls as there; growth inhibition, %; measured here: M. tuberculosis growth (absorbance);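 0% = vehicle and 100% = reference antibiotic; read after six days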
# * = called active by the depositor; ? = inconclusive; · = not tested or not shown; & = joins results of further samples.
molecule	PrP 5UTR inh	BJeLR lethal	Sa ugtP lethal	Sa RN4220 lethal	Mtb hypoxia inh	Mtb hypoxia inh growth	Bead autofluor
O=C(c1ccc2nc(N3CCOCC3)sc2c1)N1CCCC1	-11	8	6	2.5	10	8	5747
COc1ccc(/C=N/n2c(SC)nnc2-c2ccccc2)cc1C	-15	13	·	·	·	·	3234
c1coc(C2OCC3(CO2)COC(c2ccco2)OC3)c1 (centres undefined)	-25	9	7	4.8	13	8	4707
Cc1c(C(C)(C)C)s/c(=N/S(=O)(=O)c2ccccc2)n1C	-13	4	·	·	·	·	4014
O=C(NCc1ccc2c(c1)OCO2)c1c(O)nc2sccn2c1=O	-19	-6	·	·	·	·	5558
COCc1[nH]nc2c1C1(C(=O)N(C)c3ccccc31)C(C#N)=C(N)O2 (centres undefined)	-21	-7	0	24	-9	1	9743
CC(C)(C)OC(=O)N1CCC(NC(=O)c2nc[nH]c2C(=O)NCC(=O)OCc2ccccc2)CC1	-4	12	5	4.7	6	1	2905
O=S(=O)(NN=C1CCCCCC1)c1ccc(Cl)cc1	-31	-13	12	4.0	8	-12	6109
CCCC(=O)Nc1cc(C)c(NC(=O)c2ccco2)cn1	-18	3	12	0.2	1	9	3175
Cc1ccc(-c2noc(CN3CCC(C(N)=O)CC3)n2)cc1	-42	-6	2	2.6	7	7	3299
Cc1cccc(NS(=O)(=O)c2ccc(C)c(C(=O)N(C)C3CCN(C)CC3)c2)c1	-9	·	5	1.6	1	-3	7485
C=CCn1c(SCc2c(C)noc2C)nc2sc3c(c2c1=O)CCC(C)C3 (centres undefined)	-28	31	43	-4.1	·	·	2386
O=S(=O)(Nc1ccncc1)c1cc(Cl)ccc1Cl	-5	-8	-3	-3.5	-6	-10	3766
Cc1ccc(-n2ncc3c2CCCC3NC(=O)CCCN2CCCCC2=O)cc1C (centres undefined)	-18	2	10	4.4	4	4	5651
CNC(=S)N1CCc2ccccc2C1	-18	-13	5	4.3	19	10	2300
Cc1cccc(OCC(=O)OC(C)CN2CCCCC2)c1 (centres undefined)	-27	-1	6	2.3	21	14	3947
CN(C)C(=O)c1ccc(NC(=O)c2cc(-c3ccco3)nc3ccccc23)cc1	5	0	-4	2.8	-5	8	5536
CC(=O)NC12CC3CC(C1)CC(C(=O)OCC(=O)NC(=O)c1cccn1C)(C3)C2	-7	-2	-5	-2.8	0	7	3909
Cc1ccsc1C1NC(=O)c2ccccc2N1 (centres undefined)	5	0	-5	-5.5	9	9	2572
Cc1ccc(CNc2ccc3c(c2)ncn3C(C)(C)C)cc1	-73	-6	1	4.5	15	-1	4921
O=S1(=O)OCCC(c2ccccc2)N1Cc1ccccc1 (centres undefined)	-11	-7	3	16	6	3	3693
CC(=O)C1=C(O)C(=O)N(CCN2CCOCC2)C1c1ccc(N(C)C)cc1 (centres undefined)	-18	-12	0	-3.6	·	·	2671
O=C(O)C1CCN(C(=O)c2ccccc2C(=O)N2CCC(C(=O)O)CC2)CC1	-25	-5	0	1.4	7	3	9481
CCOC(=O)c1c(S(=O)(=O)NCC(=O)Nc2cc(C)ccn2)c(C)n(C)c1C	-12	-2	-2	-0.8	-7	-4	4583
S=c1[nH]cc(-c2ccc(Cl)cc2)n1-c1ccccc1	-17	-11	-1	3.8	19	11	2145
COc1ccc(OC)c(CN2CCN(S(=O)(=O)c3ccccc3)CC2)c1	-22	5	10	5.6	-6	4	4261
CCOC(=O)c1ccc(NC(=O)CN2C(=O)CSCC2=O)cc1	-17	0	-12	-2.9	2	5	2437
O=C(C1CCCN(c2nnc(-n3cccc3)s2)C1)N1CCC2(CC1)OCCO2 (centres undefined)	-21	1	0	-13	9	10	2976
CC1CCCCC1NC(=S)Nc1cccc(S(=O)(=O)N(C)C)c1 (centres undefined)	-19	-4	3	1.0	-5	2	4414
CCOC(=O)c1ccc2c(c1)C(=O)N(C1CCCCC1)C2=O	-9	10	3	2.6	-2	-4	10563

# (listing goes on)
molecule	PrP 5UTR inh	BJeLR lethal	Sa ugtP lethal	Sa RN4220 lethal	Mtb hypoxia inh	Mtb hypoxia inh growth	Bead autofluor
CN1C(=O)C2C(C=Cc3ccccc3)N3C(=O)CN(Cc4ccccn4)C(=O)[C@@]3(Cc3ccccc3)C2C1=O (some centres undefined)	·	·	-4	3.8	5	5	·
CCCCNC(=O)C(C)N(CCN(C)C)C(=O)CCCN1C(=O)NC(c2ccc(Cl)cc2)C(C(=O)OCc2ccccc2)=C1C (centres undefined)	0	·	-7	0.5	-4	8	3981
Cc1nc(C)n(C(C)CNS(=O)(=O)c2ccc(Cl)cc2)n1 (centres undefined)	-16	-13	-4	3.5	-3	-2	5889
COc1cccc(C(=O)NCC(=O)OCC(=O)Nc2cc(OC)c([N+](=O)[O-])cc2C)c1	-14	-2	-2	1.6	3	5	2098
C=CCNC(=O)[C@@H]1CSC2c3ccc(OC)c(OC)c3C(=O)N21 (some centres undefined)	-16	-4	-4	2.4	-8	10	3099
CC1(C(=O)Nc2nnc(SCc3ccccc3)s2)Cc2ccccc2C(=O)O1 (centres undefined)	-19	-9	-1	7.9	1	14	22013*
CCOC(=O)C1C(=O)CC(C)(O)C(C(=O)OCC)C1c1ccc([N+](=O)[O-])cc1 (centres undefined)	-12	15	-7	3.5	5	2	4493
CCN1C(=O)C2C(c3ccc(-c4ccc(F)cc4)cc3)N3CCC[C@@]3(C(=O)OC)C2C1=O (some centres undefined)	·	·	-5	-4.9	-2	4	·
COC(=O)C1=C(c2ccc(F)cc2F)C[C@@H]2CC[C@H]1N2C(=O)NC(C)C	-6	·	0	6.7	-6	11	4126
CC(C)(C)OC(=O)N1CCC(c2c(C(=O)N3CCN(C(=O)c4ccco4)CC3)cnn2-c2ccc(F)cc2)CC1	2	4	5	4.7	0	0	4680
O=C(COC(=O)C1CCCC1)NCc1ccc(Cl)cc1	-12	-4	9	9.1	-2	-5	3322
C=CCOC(=O)C1=CC(c2cn(C(C)=O)c3ccccc23)CC(OCCCCO)O1 (centres undefined)	·	·	1&-7	6.6&7.0	8&9	7&0	·
CCOC(=O)c1c(C)[nH]c(C)c1C(=O)COC(=O)/C=C/c1ccccc1[N+](=O)[O-]	-32	·	-5	5.2	4	2	4290
CN(C)c1cc(-c2ccc([N+](=O)[O-])cc2)oc(=O)c1Cl	-14	4	11	5.7	-3	11	·
COc1ccc(C2C(C#N)=C(N)Oc3cc(N)ccc32)cc1OC (centres undefined)	-12	4	·	·	·	·	23288*
O=C(CN1C(=O)C2(OCCCO2)c2ccccc21)NCCc1ccccc1	-9	3	-3	-1.4	1	15	10570
Nc1nc(NCCOCCO)nc(N2CCCCCC2)c1[N+](=O)[O-]	-4	16	94*	86	6	-2	3240
O=C(OCC(=O)N1CCCc2ccccc21)c1ccc(S(=O)(=O)C(F)F)cc1	-38	8	8	-3.1	-3	0	6085
COCCNC(=O)c1cc(-c2ccc(-c3ccccc3)cc2)nc2ccccc12	-8	9	10	-0.5	4	-13	4106
CCN(CC)S(=O)(=O)c1ccc(N(C)C)c(NC(=O)CC(NC(C)=O)c2ccccc2)c1 (centres undefined)	-23	3	-4	-2.4	-3	-16	4397
COc1cc(NC(=O)c2oc3ccccc3c2C)ccc1NC(=O)c1ccco1	-3	7	1	15	14	7	5987
COC(=O)c1ccc(SC)cn1	-23	4	0	8.7	-1	-11	2491
NC(=S)NN=Cc1ccc(-c2cccc([N+](=O)[O-])c2)o1	·	·	-14	-14	·	·	·
Cc1ccc(C)c(CSc2ccc3nnc(-c4ccccn4)n3n2)c1	-25	-14	5	-5.8	7	6	4461
N#CC(C(N)=O)=C1CCCCC1	-18	1	1	1.7	8	6	?
CC(C)(C)c1cc(C(=O)C[n+]2ccc(C(=O)NCCCO)cc2)cc(C(C)(C)C)c1O	-4	-19	-1	1.5	13	2	4487
COCCN(CC(=O)Oc1ccccc1P(=O)(OC)OC)Cc1ccccc1	·	10	5	2.9	0	8	4882
COc1cccc(NC(=O)N2CCC(N3CCCCC3)CC2)c1	10	-1	-2	4.0	2	-3	2530
CCc1ccc(NC(=O)COc2coc(CN3CCN(c4ccccc4)CC3)cc2=O)cc1	-8	1	10	7.4	11	2	4556
Cc1cc(Br)c2c(c1)/C(=C/C(=O)c1cccs1)C(=O)N2	-24	3	-7	3.5	9	8	5134

# Additional entries
molecule	PrP 5UTR inh	BJeLR lethal	Sa ugtP lethal	Sa RN4220 lethal	Mtb hypoxia inh	Mtb hypoxia inh growth	Bead autofluor
O=C(N/N=C\c1cccs1)c1sccc1-n1cccc1	-30	-6	·	·	·	·	4536
COc1ccc(NC(=O)C(Cc2ccccc2)n2cccc2)c(OC)c1 (centres undefined)	-13	-2	17	6.8	8	2	3962
CC(C)CNC(=O)[C@@H]1CSC2c3ccccc3C(=O)N21 (some centres undefined)	-60	3	2	0.8	9	1	3949
C#CCNC(=O)C1=C[C@H](c2ccc(C(F)(F)F)cc2)C[C@H](OCCCCO)O1	-9	-3	·	·	·	·	3658
C=CCn1cccc(C(=O)Nc2ccc(C)c(C)c2)c1=O	-57	-1	7	1.5	-4	3	4826
CC(C)(C)Cc1nnc(NC(=O)Cc2cccs2)s1	-2	-1	-7	5.8	14	7	4359
CC1(C)C2CC=C(/C=N/NC(=O)c3ccccc3O)C1C2 (centres undefined)	-6	-19	·	·	·	·	2549
Cn1cc(CN2CCC(C(=O)N3CCCCC3)CC2)c(-c2ccccc2F)n1	-9	-28	7	5.9	-9	5	3194
CCOc1cc(C=O)ccc1OCc1cc(=O)n2cc(C)ccc2n1	-18	-2	4	2.6	2	-2	4236
CCc1ccc(NC(=O)C2CCN(S(=O)(=O)c3ccc4[nH]c(=O)ccc4c3)CC2)cc1	11	-3	-12	2.4	·	·	6057
O=C(c1cn(-c2ccccc2)nc1-c1cccnc1)N1CCN(S(=O)(=O)c2ccccc2F)CC1	-4	·	2	3.1	-10	-5	6691
CC(=NNC(=O)c1c([N+](=O)[O-])c(C)nn1C)c1ccc(NC(=O)c2ccc(C)o2)cc1	·	·	2	0.4	2	5	·

# Record cards (already shown). Values in the order: PrP 5UTR inh	BJeLR lethal	Sa ugtP lethal	Sa RN4220 lethal	Mtb hypoxia inh	Mtb hypoxia inh growth	Bead autofluor
# O=C(N/N=C\c1cccs1)c1sccc1-n1cccc1 in the list: -30	-6	·	·	·	·	4536
# CC1(C)C2CC=C(/C=N/NC(=O)c3ccccc3O)C1C2 (centres undefined) in the list: -6	-19	·	·	·	·	2549

# As a working copy, eleven of the compounds above.
molecule	PrP 5UTR inh	BJeLR lethal	Sa ugtP lethal	Sa RN4220 lethal	Mtb hypoxia inh	Mtb hypoxia inh growth	Bead autofluor
CCc1ccc(NC(=O)COc2coc(CN3CCN(c4ccccc4)CC3)cc2=O)cc1	-8	1	10	7.4	11	2	4556
Cc1cc(Br)c2c(c1)/C(=C/C(=O)c1cccs1)C(=O)N2	-24	3	-7	3.5	9	8	5134
O=C(N/N=C\c1cccs1)c1sccc1-n1cccc1	-30	-6	·	·	·	·	4536
COc1ccc(NC(=O)C(Cc2ccccc2)n2cccc2)c(OC)c1 (centres undefined)	-13	-2	17	6.8	8	2	3962
CC(C)CNC(=O)[C@@H]1CSC2c3ccccc3C(=O)N21 (some centres undefined)	-60	3	2	0.8	9	1	3949
C#CCNC(=O)C1=C[C@H](c2ccc(C(F)(F)F)cc2)C[C@H](OCCCCO)O1	-9	-3	·	·	·	·	3658
C=CCn1cccc(C(=O)Nc2ccc(C)c(C)c2)c1=O	-57	-1	7	1.5	-4	3	4826
CC(C)(C)Cc1nnc(NC(=O)Cc2cccs2)s1	-2	-1	-7	5.8	14	7	4359
CC1(C)C2CC=C(/C=N/NC(=O)c3ccccc3O)C1C2 (centres undefined)	-6	-19	·	·	·	·	2549
Cn1cc(CN2CCC(C(=O)N3CCCCC3)CC2)c(-c2ccccc2F)n1	-9	-28	7	5.9	-9	5	3194
CCOc1cc(C=O)ccc1OCc1cc(=O)n2cc(C)ccc2n1	-18	-2	4	2.6	2	-2	4236

# Random draw from the library (roughly 4% active in at least one column).
